Screening data from PubChem.
NPYLR7 ag = mosquito NPYLR7 agonism; activation, % at 10 µM; HEK293T NPYLR7/Galpha15, GCaMP6s calcium fluorescence; AID 1259423; 0.15% of 270,000 active; in the data active = activation above about 40%;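 also: 0% = vehicle and 100% = reference agonist at the receptor; some compounds past the cut are filed as inactive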
NPYLR7 ag max-min = recorded beside NPYLR7 ag, whose call it bears; activation, %; measured here: Max-Min RFU normalised activation; some inactives read as strong as hits;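 span of the calcium signal over five minutes; 0% = vehicle and 100% = native peptide agonist; compound fluorescence can raise it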
An asterisk follows results filed as active. The list is partial; count on the stated rates, not on these rows.

compound,NPYLR7 ag,NPYLR7 ag max-min
CCOc1nc(-c2ccc(Cl)c(Cl)c2)n(-c2ccc(NC(=O)C(c3ccccc3)c3ccccc3)cc2)n1,24,19
CCCCN(CC(=O)N1c2ccccc2-n2cccc2C1c1cccc(C)c1)C(=O)Nc1ccc(C#N)cc1 (centres undefined),-8,1
O=C(O)CN1C(=O)/C(=C\c2cccc([N+](=O)[O-])c2)SC1=S,-6,-3
CS(=O)(=O)c1ccc(C(NC(=O)C2CC2(c2ccccc2)c2ccccc2)c2ccc3c(c2)CCO3)cc1 (centres undefined),-23,-31
COC(=O)C(C)Sc1nc2sc3c(c2c(=O)n1Cc1ccccc1)CCC3 (centres undefined),-6,-10
C=CCNC(CC(=O)Nc1ccc(O)cc1C)C(=O)O (centres undefined),1,1
CC(C)NC(=O)CNC(=O)c1nc(Cl)c(Cl)c(Cl)c1Cl,2,1
Cc1ccc(-c2ccc(=O)n(CC(=O)Nc3cccc(F)c3)n2)s1,-2,0
COc1ccc(OC)c2sc(N(CCN(C)C)C(C)=O)nc12,-2,-6
COc1ccc2nc(NS(=O)(=O)c3cc(Br)ccc3Br)sc2c1,0,-11
C=CCNC(=O)C(NC(=O)c1ccc(OC)cc1)C1CCN(C(=O)c2ccccc2OC)CC1 (centres undefined),17,20
CCOC(=O)c1nnn(CC(=O)Nc2cccc(Br)c2)c1C(=O)OCC,-11,-12
Cc1ccc(NC(=O)Nc2ccc(N3CCC(Cc4ccccc4)CC3)c(C(=O)N3CCCC3)c2)c(C)c1,3,19
COc1ccc(-c2cc(-c3ccc(OC)cc3)c(C#N)c(SCC(=O)c3ccc(C)cc3C)n2)cc1,-3,-7
FC(F)(F)c1ccc(Oc2ccc(Cl)c3cccnc23)nc1,2,-2
COc1ccc(NC(=S)Nc2ccc(OC(F)F)cc2)cn1,1,0
CCOC(=O)CCn1nc(C)c([N+](=O)[O-])c1C,9,3
CC(C)(C)c1noc(OCc2ccc(C(N)=O)cc2)n1,14,6
COc1ccccc1-c1cc(C(=O)N(C)OC)[nH]n1,-7,-7
Cc1cccc(Oc2cc(N3CCSCC3)ncn2)c1,-9,7
COCCn1c(N2CCN(c3ccc(OC)cc3)CC2)nc2c1c(=O)[nH]c(=O)n2C,6,3
Cn1cnc2c1c(=O)n(CCCSc1ncnc3sccc13)c(=O)n2C,1,0
COc1ccc(-c2cc(C(=O)NCc3ccncc3)n(-c3ccc(Cl)cc3)n2)c(OC)c1,22,21
CC(=O)Nc1ccc(CN(C)CC2(CO)CCOCC2)cc1,-1,-2
CCc1nnc(-c2cc3ccccc3n2CC(=O)Nc2cccc(C(F)(F)F)c2)o1,-4,-5
COC(=O)CN1C(=O)/C(=C/c2cc(OC)ccc2OC)SC1=S,1,-2
COc1cccc(CCN2C(=O)CC3(C2=O)C(=O)N(Cc2ccccc2)c2ccc(F)cc23)c1 (centres undefined),6,-5
COc1coc(/C=C/C(=O)O)cc1=O,-2,-1
CN(Cc1cccs1)C(=O)NC1CCCC(C(F)(F)F)C1 (centres undefined),0,-1
Cc1nn(C)c(C)c1CC(=O)Nc1cc(C(F)(F)F)[nH]n1,3,0
CC1(C)Cc2c(C#N)c(N3CCCC3)nc(-c3ccco3)c2CO1,10,5
CCc1nc2n(n1)C(=O)C(C(c1ccco1)N1CCC(O)CC1)S2 (centres undefined),0,-10
COc1ccccc1N1CCN(C(=O)c2cc(-c3cccs3)nn2-c2ccc(F)cc2)CC1,15,19
O=C(NOC(=O)c1cc(Cl)ccc1Cl)c1cccs1,7,3
O=C(NCC(F)(F)F)c1cccc(NS(=O)(=O)c2ccccc2Br)c1,4,9
COc1cccc(-c2c(Nc3ccccc3C)oc3c2c(=O)n(C)c(=O)n3C)c1,-2,-3
O=C(NCCCN1CCCC1=O)C(C1CCCC1)N1CCN(C(=O)c2ccccc2Cl)CC1 (centres undefined),11,9
COC(=O)c1c(C)nsc1NC(=O)N1CCNC(=O)C1c1ccccc1 (centres undefined),1,0
CCc1nc2ccc(C(=O)NCCNC(C)=O)cn2c1N(C)CCN1CCOCC1,23,17
C=CCn1c(SCC(=O)O)nnc1-c1ccccc1,-15,-21
NC(=O)c1c(NC(=O)C2CC=CCC2)sc2c1CCCC2 (centres undefined),-3,-3
Cc1csc(SCc2nc3sc4c(c3c(=O)[nH]2)CCC4)n1,1,-1
NC(=O)C1CC(O)CN1c1ccccc1S(=O)(=O)C(F)(F)F (centres undefined),-3,-5
COc1cccc(C(=O)N2CCOC(COc3ccc(F)cc3)C2)c1C (centres undefined),0,4
N#Cc1c(N)c(C#N)c2[nH]c(=O)c3ccccc3n2c1=S,8,5
Oc1cccc(-c2nc(N3CCOCC3)c3oc4ncccc4c3n2)c1,-4,-11
Cc1ccc(CNC2CC3CCC2(C)C3(C)C)s1 (centres undefined),1,0
CC(=O)N1CCCC1c1nc2cc(-c3ccc(N(C)C)cc3)ccc2o1 (centres undefined),4,2
CCOC(=O)c1nn(-c2ccccc2C)c(=O)cc1OCC(=O)Nc1ccccc1,11,4
CCOC(=O)C1CCCCN1CC(=O)N1N=C(c2ccccc2Cl)CC1c1cc(OC)ccc1OC (centres undefined),-8,1
CC(C)N(C)Cc1ccc(CNS(=O)(=O)N2CCCCCC2)cc1,-3,-5
C(=C\c1cnc2n[nH]nc2c1)/c1ccccc1,-1,5
CSCc1cccc(C(=O)NC2CCSc3c(F)cccc32)c1 (centres undefined),3,0
Cc1c(NCc2cccnc2)cccc1C(=O)NCCN1CCCC1=O,-7,-11
CCCCc1nc2cc(C(=O)NCc3ncc(C)[nH]3)ccc2o1,2,-2
O=C(CSc1nc2ccccc2s1)N/N=C\c1ccccc1O,-3,-5
CCOC(=O)C1=C(C)NC(C)=C(C(=O)OCC)C1c1ccccc1Cl,2,1
CC(=O)Cc1nsc(NC(=O)c2ccc(-c3ccc([N+](=O)[O-])cc3)o2)n1,-3,-4
CCOC(=O)C(c1cc(OC)ccc1OC)C1C=CC(NS(=O)(=O)c2ccc(C(C)=O)cc2)C1 (centres undefined),8,11
Cc1nn(C(C)C(=O)NC2CC2)c(=O)c2cc3sccc3n12 (centres undefined),7,6

Next part
compound,NPYLR7 ag,NPYLR7 ag max-min
COc1ccc(CC(=O)N2N=C(c3cccnc3)CC2(O)C(F)(F)F)cc1OC (centres undefined),0,1
CCOC(=O)c1cnc2cc3c(cc2c1Cl)OCO3,5,6
CC1(C(=O)NCc2cccc(NS(C)(=O)=O)c2)Cc2ccccc2C(=O)O1 (centres undefined),-5,-7
O=c1scc(-c2ccc(F)cc2)n1Cc1noc(C2CC2)n1,8,6
O=C(CSc1nnc2ccc(-c3ccccc3)nn12)NCC1CCCO1 (centres undefined),-13,-5
CCCCCN(CC(=O)Nc1cc(C(C)(C)C)nn1-c1ccccc1Cl)C(=O)Nc1cc(OC)cc(OC)c1,-1,0
CC(NC(=O)c1ccc(Cn2cccn2)o1)c1ccccc1Br (centres undefined),-4,-3
COc1ccc(OCCSc2nnc3sc4ccccc4n23)cc1,-3,-6
Cc1nonc1C1CCCN1Cc1cn[nH]c1-c1ccc2c(c1)OCO2 (centres undefined),-1,-7
O=c1c2cc3c(cc2nc2sc(Nc4ccccc4F)nn12)OCO3,4,1
c1ccc(-c2nc(CSc3cc(N4CCOCC4)ncn3)cs2)cc1,-3,-6
Cc1cccc(N2CCN(c3nc(-c4ccccc4F)nc4ccccc34)CC2C)c1 (centres undefined),-1,3
CN(CC(=O)N1CCOCC1)Cc1ccc(Br)c(F)c1,3,-17
Cc1cc(C(=O)N2CCC2(C)C(=O)Nc2cnc3ccccc3c2)nn1C (centres undefined),4,3
CCn1c(COc2ccccc2Cl)n[nH]c1=S,10,10
COc1ccc2c(c1)-c1sc(C(=O)NC(C)c3ccc(Br)cc3)cc1CC2 (centres undefined),3,-2
COc1cccc(-n2c(SCC(=O)Nc3nccs3)nc3c([nH]c4ccccc43)c2=O)c1,0,46
CCCCC(CC)C(=O)N1CCC(c2nc(-c3cccnc3)no2)CC1 (centres undefined),3,3
Cc1cccc2c1C(=O)NC1(CCN(S(=O)(=O)c3ccc(Cl)cc3)CC1)N2,-1,3
O=C(C1CCCS1)N1CCN(Cc2nccn2C(F)F)CC1 (centres undefined),6,3
CCOC(=O)c1nn(-c2ccc(F)cc2)c(=O)c2c(NC(=O)CCCc3ccccc3)scc12,4,-1
Cc1ccc(-c2ccc(OCCNS(=O)(=O)c3cccnc3)nn2)cc1,0,-7
Cc1c(C(=O)NCc2ccc(C(F)(F)F)cc2)sc(=O)n1Cc1ccccc1F,-7,-7
Cc1nn(-c2ccccc2)c(Cl)c1CN1CC[C@H](CO)[C@H](O)C1,7,6
Cn1c(SCC(=O)c2c(N)n(C3CC3)c(=O)[nH]c2=O)nnc1C1CC1,-1,10
O=C(c1ccc(=O)[nH]n1)N1CCN(Cc2nc3ccccc3n2Cc2ccccc2)CC1,-1,-3
CC(C)COC(=O)N1CCC2(CC1)N=CC(C)(c1ccccc1)S2 (centres undefined),-9,-11
CCCn1nnnc1CS(=O)(=O)c1ncc(C(F)(F)F)cc1Cl,0,4
COc1cc(OC)cc(C(=O)Oc2coc(CSc3nccc(C)n3)cc2=O)c1,-13,-7
Cc1ccc(C(NC(=O)C2=COCCO2)c2cccs2)cc1 (centres undefined),-3,-3

Four of the compounds above, as labelled records:
CN(CC(=O)N1CCOCC1)Cc1ccc(Br)c(F)c1
  NPYLR7 ag = 3	NPYLR7 ag max-min = -17

Cc1cc(C(=O)N2CCC2(C)C(=O)Nc2cnc3ccccc3c2)nn1C (centres undefined)
  NPYLR7 ag = 4	NPYLR7 ag max-min = 3

CCn1c(COc2ccccc2Cl)n[nH]c1=S
  NPYLR7 ag = 10	NPYLR7 ag max-min = 10

COc1ccc2c(c1)-c1sc(C(=O)NC(C)c3ccc(Br)cc3)cc1CC2 (centres undefined)
  NPYLR7 ag = 3	NPYLR7 ag max-min = -2

(list continues)
compound,NPYLR7 ag,NPYLR7 ag max-min
O=C(c1ccco1)N1C2CCC(O)(CC2)[C@@H]1[C@@H](O)c1ccccc1,4,16
COc1cccc(-c2ccc3nnc(SCc4cccnc4)n3n2)c1,-18,-16
CCn1ncnc1C(C)NC(=O)Cc1c(C)nc2ccccn12 (centres undefined),7,2
Cc1ccc(N=C2NN=C(c3ccc4c(c3)CC(=O)N4C)CS2)c(C)c1,7,9
CSCCC(=O)N(Cc1ccc(F)cc1)CC1CCCO1 (centres undefined),-4,-4
Cc1ccc(C(=O)Nc2sc3c(c2C#N)CCCC3)cc1S(=O)(=O)N1CCCCC1,1,-1
Fc1ccc(NN=Cc2ccc3c(c2)OCCO3)c(F)c1,4,2
CCNC(=O)C1(C)CCCN(Cc2ccc(OCc3ccccc3)cc2)C1 (centres undefined),15,15
Cc1nc(NCCNC(=O)Nc2ccccc2)cc(N2CCCC2)n1,-1,-4
CN1CCN(c2cc(C(F)(F)F)nc(SCc3ccc(C(=O)NCC4CC4)cc3)n2)CC1,12,11
FC(F)(F)CCc1ccnc(-c2cccc3c2OCC3)n1,-3,6
O=C(CCc1ccccc1)N1[C@@H](c2ccco2)[C@@H](CO)C[C@]12CCCCN(CCO)C2=O,3,10
O=S(=O)(Nc1ccc(Br)cn1)c1ccc2ccccc2c1,-8,-13
Fc1c(F)c(F)c(N=Cc2ccc3ncccc3c2)c(F)c1F,-10,-13
CN(C(=O)CN1CCN(C(=O)c2cn(C)cc3c(=O)n(-c4ccccc4)nc2-3)CC1)c1ccccc1,-3,-9
S=c1nc(-c2cccs2)[nH][nH]1,-4,-5
CCc1ccc(N2CCn3c2nc2c3c(=O)n(CC(C)C)c(=O)n2C)cc1,0,0
FC(F)(F)CCc1ccnc(NCc2cnc3c(c2)CCC3)n1,3,1
COc1cc(NC(=O)c2ccc(Cl)c(S(C)(=O)=O)c2)cc(OC)c1,9,7
COc1ccc(CCNC(=O)c2cccnc2N2CCN(S(=O)(=O)c3cc(C)cc(C)c3)CC2)cc1OC,1,3
Cc1ccc2nc(COC(=O)C3=COCCO3)cc(=O)n2c1,3,7
CCc1nc(SCC(=O)N2CCCN(C)C3(CCN(C)CC3)C2)n[nH]1,4,1
CS(=O)(=O)c1nnnn1-c1ccc2c(c1)OCO2,-1,-3
Cc1ccc2c(c1)c(CNC(=O)CCc1c(C)nn(C)c1C)nn2C,11,7
Cc1ccc(N2CCN(C(=O)c3ccccc3N3CCC(NC(=O)c4ccc(F)cc4)CC3)CC2)cc1C,7,14
CCn1c(SCC(=O)NCc2cccc(OC)c2OC)nc2cc(-c3ccccc3)sc2c1=O,-5,-7
CCCCCNc1cc(C)nc2c(-c3ccccc3Cl)c(C)nn12,5,4
Cc1ccc(S(=O)(=O)N2CCN(C(=O)c3cncn3-c3ccc(F)cc3)CC2)c(C)c1,-4,-6
O=C(NCCCN1CCCC1=O)c1ccccc1C1CCNC1 (centres undefined),20,3
CC(=O)Nc1ccc(NC(=O)C2(c3cccc(C)c3)CCC2)cc1,5,4
CN(CCc1ccccn1)c1ncccc1CNC(=O)C1(C)CC1,-1,-1
COc1ccc(-c2cc3c(=O)n(CC(=O)Nc4ccc(C)cc4Cl)ccn3n2)cc1OC,3,1
CCCC(Sc1nnc(NC(=O)COCc2ccccc2)s1)C(=O)OCC (centres undefined),-9,-4

3 compounds from above, arranged by molecular weight, smallest number first:
compound,NPYLR7 ag,NPYLR7 ag max-min
CSCCC(=O)N(Cc1ccc(F)cc1)CC1CCCO1 (centres undefined),-4,-4
O=S(=O)(Nc1ccc(Br)cn1)c1ccc2ccccc2c1,-8,-13
CCn1c(SCC(=O)NCc2cccc(OC)c2OC)nc2cc(-c3ccccc3)sc2c1=O,-5,-7
